StopGo reporter = High Throughput Screening for Foot and Mouth Disease Virus Antivirals; human cells with a luciferase reporter of 2A StopGo recoding; control for the full effect not named in the record; Potency, µM (doses to about 57.9 µM), for the others: at the top dose signal change, negative = less light; 410,000 compounds, 1.2% hits; AID 1159524, 2015; active = well fitted falling curve with a large enough effect; inconclusive = small, poorly fitted or top-dose-only effect; inactive = no such curve, though single readings can be large or run the other way; tested in HEK293T cells; note: % is set by controls: 0 for no effect and ±100 for the full control effect; nearly all actives have a fitted effect of over 45% in size; luciferase light after 4 h
NS1 inh = qHTS Assay for Inhibitors of Influenza NS1 Protein Function. S. cerevisiae slowed by influenza A NS1, growth recovery by OD600. Potency, µM (titrated, usually from 46.1 µM), inactives show top-dose activity, positive = more growth. 270,000 compounds, 0.4% hits. AID 2326, 2010; note: actives are rising curves; nearly all actives have a fitted effect of over 50% in size
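Compounds were scored for reversing the slow growth caused by influenza A NS1 in S. cerevisiae, measured by optical density at 600 nm. Assay medium contained 2% galactose at pH 6.0; NS1-free yeast of the same strain were the positive control.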
SARS PLP yeast = qHTS of Yeast-based Assay for SARS-CoV PLP. S. cerevisiae expressing SARS-CoV PLpro, growth rescue; control for the full effect not named in the record. AID 485353, 2010. 330,000 compounds, 0.19% hits. Potency, µM (doses to about 32.9 µM), inactives show top-dose activity, positive = growth rescue; note: 0% is about no effect; nearly all actives have a fitted effect of over 55% in size; growth read by luminescence after 48 h
Cruzain inh noDet = qHTS Assay for Promiscuous and Specific Inhibitors of Cruzain (without detergent). purified cruzain, Z-FR-AMC fluorescence, no detergent. Potency, µM, without a hit: max response, negative = inhibition, actives largely listed as inhibitors. 200,000 compounds, 2.3% hits; active = well fitted curve in the direction sought with a large enough effect; inconclusive = small, poorly fitted or top-dose-only effect, or another doubt; inactive = no such curve, though single readings can be large; an effect the other way counts as inactive or inconclusive;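 note: plate controls were enzyme without inhibitor for no effect and buffer without enzyme for full effect; nearly all actives have a fitted effect of over 40% in size; top concentration of the series not given in the record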
Target sequence (P25779 123-467 limits assumed): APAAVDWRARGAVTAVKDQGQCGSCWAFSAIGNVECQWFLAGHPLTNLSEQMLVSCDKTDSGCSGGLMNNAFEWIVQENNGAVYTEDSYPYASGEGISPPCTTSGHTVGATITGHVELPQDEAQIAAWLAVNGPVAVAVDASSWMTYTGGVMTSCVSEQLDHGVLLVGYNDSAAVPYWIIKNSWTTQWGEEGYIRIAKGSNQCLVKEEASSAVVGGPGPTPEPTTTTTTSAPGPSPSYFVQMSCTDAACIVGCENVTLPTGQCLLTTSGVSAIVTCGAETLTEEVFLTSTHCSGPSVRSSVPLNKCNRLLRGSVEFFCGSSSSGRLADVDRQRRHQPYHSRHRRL
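Detergent-free condition (0.00005% Triton X-100) in acetate buffer pH 5.5 with DTT. 1.5 nM enzyme and compound were pre-mixed 15 min, then 2 uM Z-FR-AMC substrate added; reaction progress from fluorescence change between first and third reads (60 s).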
RE007 growth inh = qHTS Assay for Inhibitors of the HIV-1 protein Vpr. S. pombe RE007 Vpr strain, BacTiter-Glo ATP luminescence, 24 h; control for the full effect not named in the record. 360,000 compounds, 0.21% hits. Potency, µM (titrated, usually from 92.2 µM), for inactives: top-dose activity change, negative = less growth; active = well fitted falling curve with a large enough effect; inconclusive = small, poorly fitted or top-dose-only effect; inactive = no such curve, though single readings can be large or run the other way;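 note: % is set by controls: 0 for no effect and ±100 for the full control effect; nearly all actives have a fitted effect of over 50% in size; the assay follows cell death caused by Vpr and the record does not say whether a fall means rescue or toxicity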
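Fission yeast RE007 carrying one integrated HIV-1 vpr copy, seeded at OD 0.01 in PMG+AL medium with 23 nL pinned compound. Grown 24 h at 30 degrees; viability read by BacTiter-Glo luminescence after 5 min.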
MARV entry inh = qHTS for inhibitors of binding or entry into cells for Marburg Virus; Marburg virus pseudotyped entry inhibition, cell reporter; control for the full effect not named in the record; about a third of the inactives were read at about 46 µM; Potency, µM (top dose mostly 37.8 µM), for inactives: at the highest dose activity change, negative = inhibition, actives largely listed as inhibitors; AID 540276, 2011; 300,000 compounds, 1.8% hits; active = well fitted inhibition curve with a large enough effect; inconclusive = small, poorly fitted or top-dose-only effect, or effect the other way; inactive = flat fitted curve, though single readings scatter; tested in HEK293 cells; about a fifth of its hits are not listed in these tables; note: % is set by controls: 0 for no effect and ±100 for the full control effect; luciferase read-out
LASV entry inh = qHTS for Inhibitors of binding or entry into cells for Lassa Virus; Lassa virus pseudotype entry inhibition, cell reporter; control for the full effect not named in the record; Potency, µM (top dose mostly 37.9 µM), without a hit: at the top dose activity change, negative = inhibition, most hits filed as inhibitors; AID 540256, 2011; 300,000 compounds, 1.2% hits; active means well fitted inhibition curve with a large enough effect; inconclusive means small, poorly fitted or top-dose-only effect, or effect the other way; inactive means flat fitted curve, though single readings scatter; tested in HEK293 cells; note: % is set by controls: 0 for no effect and ±100 for the full control effect; nearly all actives have a fitted effect of over 50% in size; luciferase read-out
Cruzain inh Det = qHTS Assay for Promiscuous and Specific Inhibitors of Cruzain (with detergent). 200,000 compounds, 0.43% hits. Potency, µM, for the others: max response, negative = inhibition, actives largely listed as inhibitors. AID 1478, 2009. Cruzipain (Trypanosoma cruzi), P25779. purified cruzain, Z-FR-AMC fluorescence, 0.01% Triton; active = well fitted curve in the direction sought with a large enough effect; inconclusive = small, poorly fitted or top-dose-only effect, or another doubt; inactive = no such curve, though single readings can be large; an effect the other way counts as inactive or inconclusive;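 note: plate controls were neutral wells for no effect and buffer without enzyme for full effect; nearly all actives have a fitted effect of over 40% in size; top concentration of the series not given in the record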
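Read-out: AMC fluorescence (360 nm excitation, 450 nm emission), four reads over 2 min, first-to-third difference used. Conditions: cruzain 1.5 nM, Z-FR-AMC 2 uM, pH 5.5 acetate, 5 mM DTT, 0.01% Triton X-100.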
* hit, by the source's call; ? = inconclusive; . = not tested or not shown; [ ] = remark or other dose. Unless noted, calls come from the whole dose curve; as a rule, active means well fitted rising curve with a large enough effect; inconclusive means small, poorly fitted or top-dose-only effect; inactive means no such curve, though single readings can be large or run the other way. Potency is the fitted concentration of half-maximal effect.

No.	mol	StopGo reporter	Cruzain inh Det	LASV entry inh	NS1 inh	MARV entry inh	SARS PLP yeast	RE007 growth inh	Cruzain inh noDet
1	Cc1ccccc1/C=N/Nc1nc2ccccc2[nH]1	19.6%	.	?	.	-26.7%[46.1 µM]	-10.4%	-27.0%	.
2	O=C(N/N=C\c1cccnc1)c1ccc(Br)s1	47.5%[activator]	.	1.4%	-31.3%	2.5%	-1.5%	-27.2%	.
3	C=CCN1C=C2C(=O)C(C)(OC(=O)CCc3ccccc3)C(=O)C=C2C=C1c1ccc(C#N)cc1 (configuration not stated)	-7.4%	.	.	1.2%	.	-1.3%	-13.9%	.
4	CCc1cnc2c(c1SCC(=O)NCc1ccccc1Cl)c(=O)n(C)c(=O)n2C	-2.7%	-0.3%	9.5%[46.1 µM]	.	.	.	.	-6.6%
5	O=C(CCCN1C(=O)/C(=C/c2ccccc2Cl)SC1=S)N1CCOCC1	0.0%	.	.	12.4%	.	0.1%	-0.5%	.
6	COc1ccc(NC(=O)CCNC(=O)Cn2ccc3ccccc3c2=O)cc1OC	5.3%	.	-3.3%	10.8%	-0.6%[46.1 µM]	12.1%	-4.8%	.
7	CN(C)S(=O)(=O)c1ccc(NC(=O)C2CCCN(C(=O)c3ccc(Cl)cc3)C2)cc1 (configuration not stated)	?	-6.0%	2.9%	-16.1%	-3.1%	24.8%	-6.3%	7.4%
8	Cc1ccccc1C(=O)Nc1ccc2c(c1)OCO2	-57.1%	14.6%	?	-15.7%	?	-4.8%	?	2.1%
9	COc1ccc(-c2cc(C3CCN(c4ncccc4[N+](=O)[O-])CC3)[nH]n2)cc1	?	-7.7%	-20.3%	-47.4%	?	-13.3%	12.0%	-4.0%
10	CC(C)CCNC(=O)C1CCN(S(=O)(=O)c2ccc3c(c2)CC(C)N3C(=O)C2CCC2)CC1 (configuration not stated)	-22.3%	.	-22.4%[46.1 µM]	-9.0%	-0.6%[46.1 µM]	-1.8%	-2.8%	.
11	Nc1c(N(CCC2=CCCCC2)C(=O)c2ccco2)c(=O)[nH]c(=O)n1Cc1ccccc1	?	.	3.4%[46.1 µM]	.	?	1.3%	4.2%	.
12	Cc1n[nH]c(C)c1S(=O)(=O)N1CCCC(C(=O)Nc2ccc3c(c2)OCCO3)C1 (configuration not stated)	.	1.7%	.	3.0%	1.8%	-2.9%	.	-12.5%
13	O=C(/C=C/c1cccc([N+](=O)[O-])c1)N1CCN(c2ccccn2)CC1	-9.8%	.	.	-11.3%	.	-0.1%	-20.9%	.
14	O=C(c1ccccn1)N1CCCC(N2CCN(c3ccc(F)cc3)CC2)C1 (configuration not stated)	-5.1%	.	.	-5.5%	.	5.3%	-4.4%	.
15	Cc1ccc2ncccc2c1NS(=O)(=O)c1ccccc1	32.9%[activator]	0.7%	-1.3%	-3.5%	12.2%	1.5%	3.9%	-2.5%
16	CCOc1ccc(CN(C)c2ccc(S(=O)(=O)N3CCN(C)CC3)cc2[N+](=O)[O-])cc1OC	?	.	-29.7%	.	?	4.9%	-4.4%	.
17	CCCCNC(=O)c1cc(-c2ccc(OC)cc2)on1	60.9%[activator]	-6.9%	-9.2%	-4.8%	?	-10.1%	5.6%	-3.5%
18	CCn1c(C(C)NC(=O)c2cccc(C)c2)n[nH]c1=S (configuration not stated)	-10.4%	.	9.5%	8.4%	21.8%	11.0%	13.0%	.
19	COc1ccccc1-c1noc(-c2ccc(NCc3cccnc3)c([N+](=O)[O-])c2)n1	-2.1%	-0.7%	5.3%[46.1 µM]	.	9.9%[46.1 µM]	.	.	?
20	O=C(c1ccco1)N1CCN(C(c2ccccc2)c2nnnn2Cc2cccs2)CC1 (configuration not stated)	-5.0%	1.8%	-14.3%	-16.9%	?	23.0%	-13.9%	5.9%
21	Cc1ccc(N=Nc2c(C)[nH]n(-c3ccccc3)c2=O)cc1Br	5.3%	.	.	-0.3%	.	-2.7%	2.0%	.
22	O=C(CCl)N(Cc1ccccc1)c1ccccc1	22.4µM*	.	?	.	16.4µM*	0.7%	9.5%	.
23	Cc1cccc(N2CC(C(=O)O)CC2=O)c1C (configuration not stated)	-7.4%	.	11.9%	2.4%	2.6%	0.1%	-5.2%	.
24	Cc1ccc2c(c1)N(S(=O)(=O)c1ccc(CN3C(=O)c4cccnc4C3=O)s1)CCO2	-16.8%	.	-16.5%[46.1 µM]	-18.0%	5.2%[46.1 µM]	-8.3%	-17.2%	.
25	O=C(CSc1ncnc2ccccc12)NCCc1ccccc1	-13.4%	.	-17.7%[46.1 µM]	-4.9%	-27.9%[46.1 µM]	-2.7%	6.1%	.
26	O=C(NCc1ccccc1)c1cccc(NS(=O)(=O)c2cccc3cccnc23)c1	0.3%	0.3%	-24.6%	23.3%	-3.0%	4.9%	13.9%	-7.6%
27	CCCN1C(=O)C2(/C(=C(\O)c3ccc4c(c3)OCCO4)C(=O)C(=O)N2CCCOC)c2ccccc21 (configuration not stated)	-11.2%	-0.7%	-10.0%	2.6%	-9.0%	0.2%	0.3%	13.5%
28	CC1=Nc2cc(C(=O)N3CCC(C)CC3)ccc2Sc2ccc(Cl)cc21	-11.8%	-7.0%	-22.4%[46.1 µM]	.	-0.4%[46.1 µM]	.	.	-7.2%
29	O=S(=O)(NCC(c1ccco1)N1CCN(c2ccccc2)CC1)c1cc(F)ccc1F (configuration not stated)	-8.7%	-5.4%	?	.	.	.	.	-4.9%
30	COc1ccc(-n2cnc3ccccc3c2=O)c([N+](=O)[O-])c1	0.0%	.	.	4.2%	.	2.7%	16.4%	.
31	Cc1ccccc1-c1noc(CCC(=O)NCC2CCCO2)n1 (configuration not stated)	13.2%	0.7%	8.7%	14.7%	5.7%	-6.1%	-6.7%	-8.9%
32	O=C(Cc1cccs1)Nc1cccc(-c2nc3ccccc3[nH]2)c1	45.5%[activator]	-1.5%	20.7%	-23.6%	23.7%	11.4%	39.1%	5.1%
33	COc1ccccc1CN(C)C(=O)c1ccc(COc2ccccc2)cc1	7.2%	.	?	-40.6%	-10.1%[46.1 µM]	-3.7%	0.3%	.
34	CC(C)c1ccc2[nH]c(O)c(N=NC(=O)c3ccc(CSc4nncn4C)cc3)c2c1	2.6%	-8.1%	13.2%	12.7%	17.1%	2.9%	17.5%	-9.7%
35	CC1(c2ccccc2)NC(=O)N(CC(=O)Nc2nc(-c3ccccn3)cs2)C1=O (configuration not stated)	5.2%	.	-14.2%	.	-3.0%	-5.3%	-6.0%	.
36	Nc1nc(SCc2ccc3c(c2)OCCO3)n[nH]1	51.5%[activator]	3.0%	?	-4.4%	14.1%[46.1 µM]	.	10.5%	-0.1%
37	CC(C)Oc1cc(NC(=O)CS(=O)CC(=O)Nc2cccc(C(F)(F)F)c2)c(Cl)cc1Cl (configuration not stated)	.	-9.5%	?	21.5%	-5.0%	-13.3%	13.4%	-3.0%
38	COc1cc2cc(C)c(SCC(=O)N3CCOCC3)nc2cc1OC	.	0.7%	-1.3%	1.1%	-26.0%	-4.0%	3.7%	-0.3%
39	COc1ccccc1CCNC(=O)C(=O)NCC1OCCN1S(=O)(=O)c1ccc(Br)cc1 (configuration not stated)	-6.0%	-1.7%	-5.7%	23.3%	0.3%	10.2%	-2.8%	9.7%
40	CC(C)N1CCC(N2CCN(CC#Cc3ccccc3)CC2CCO)CC1 (configuration not stated)	0.8%	.	1.9%	0.3%	-25.5%[14.2 µM]	0.3%	-12.8%	.
41	CCOC(=O)c1sc2ccc(S(=O)(=O)N3CCOCC3)cc2c1N	?	-1.0%	-12.9%	-7.9%	-20.0%	-2.5%	-1.8%	-2.5%
42	CCCc1cc(=O)[nH]c(SCc2cc(Cl)ccc2OC(F)F)n1	?	-12.3%	14.2%	-22.3%	-4.3%	-6.1%	-8.5%	-5.2%
43	O=C(NNC(=S)NC(=O)c1cccc([N+](=O)[O-])c1)c1ccc(Br)cc1	-25.9%	.	?	4.9%	15.8%[46.1 µM]	-3.8%	-0.7%	.
44	NS(=O)(=O)c1ccc(NC(=O)/C=C/c2ccc3c(c2)OCO3)cc1	12.5%	.	?	.	?	0.7%	5.7%	.
45	O=C(OC1CCOC1=O)c1cc(-c2ccc(Br)cc2)nc2ccccc12 (configuration not stated)	20.5%	-3.2%	-6.2%	6.8%	11.2%	?	2.4%	-1.7%
46	O=C(CSc1nncs1)Nc1nnc(-c2ccccc2)o1	11.9%	.	0.2%	-2.2%	?	0.0%	2.6%	.
47	COc1cccc(/C=C/C(=O)Nc2ccc(C(=O)Nc3cccc(S(N)(=O)=O)c3)cc2)c1OC	22.6%	.	.	-6.8%	?	0.7%	18.6%	.
48	CCOc1ccccc1NC(=O)N1CCCC1C(=O)NCc1ccco1 (configuration not stated)	13.9%	.	25.1%[46.1 µM]	?	15.1%[46.1 µM]	16.6%	0.3%	.
49	COc1ccc(C2C(C(=O)NCc3cccnc3)c3ccccc3C(=O)N2C)cc1OC (configuration not stated)	11.6%	7.3%	?	-9.5%	5.5%	-7.4%	-5.1%	-1.5%
50	Cc1ccc(OCCn2c(CNc3cccc(C)c3)nc3ccccc32)cc1	-6.0%	-7.5%	0.7%[46.1 µM]	.	-1.7%[46.1 µM]	.	.	-14.7%
51	CC(CN1CCOCC1)OC(=O)C(c1ccccc1)c1ccccc1 (configuration not stated)	0.0%	2.3%	-4.5%	0.9%	0.2%	1.2%	-10.9%	2.4%

Screens (PubChem)
